SARS PLP yeast = SARS-CoV PLP inhibition in yeast; hit rate 0.19% among 330,000; S. cerevisiae expressing SARS-CoV PLpro, growth rescue; control for the full effect not named in the record; Potency, µM (highest dose often 32.9 µM), inactives show top-dose activity, positive = growth rescue; further: 0% is about no effect; nearly all actives have a fitted effect of over 55% in size; growth read by luminescence after 48 h
StopGo reporter = lowers the luciferase signal of an FMDV 2A StopGo reporter; human cells with a luciferase reporter of 2A StopGo recoding; control for the full effect not named in the record; Potency, µM (top dose mostly 57.9 µM), for the others: at the top dose signal change, negative = less light; hit rate 1.2% among 410,000; active = well fitted falling curve with a large enough effect; inconclusive = small, poorly fitted or top-dose-only effect; inactive = no such curve, though single readings can be large or run the other way; tested in HEK293T cells; further: on the % scale 0 is the no-effect control and ±100 the full control effect; nearly all actives have a fitted effect of over 45% in size; luciferase light after 4 h
RE007 growth inh = less growth of the S. pombe RE007 Vpr strain; S. pombe RE007 Vpr strain, BacTiter-Glo ATP luminescence, 24 h; control for the full effect not named in the record; Potency, µM (top dose mostly 92.2 µM), for inactives: at the highest dose activity change, negative = less growth; hit rate 0.21% among 360,000; active = well fitted falling curve with a large enough effect; inconclusive = small, poorly fitted or top-dose-only effect; inactive = no such curve, though single readings can be large or run the other way;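 further: on the % scale 0 is the no-effect control and ±100 the full control effect; nearly all actives have a fitted effect of over 50% in size; the assay follows cell death caused by Vpr and the record does not say whether a fall means rescue or toxicity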
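Fission yeast strain RE007, carrying one chromosomally integrated HIV-1 vpr copy, was seeded at OD 0.01 in PMG+AL medium with 23 nL pinned compound. After 24 h at 30 °C and 99% humidity, viability was read by BacTiter-Glo luminescence.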
Cruzain noTriton = blocks cruzain activity in detergent-free assay; P25779; purified cruzain, Z-FR-AMC fluorescence, no detergent; Potency, µM, inactives show max response, negative = inhibition, usual class: inhibitors; hit rate 2.3% among 200,000; active means well fitted curve in the direction sought with a large enough effect; inconclusive means small, poorly fitted or top-dose-only effect, or another doubt; inactive means no such curve, though single readings can be large; an effect the other way counts as inactive or inconclusive;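 further: plate controls were enzyme without inhibitor for no effect and buffer without enzyme for full effect; nearly all actives have a fitted effect of over 40% in size; top concentration of the series not given in the record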
Target sequence (P25779 123-467 limits assumed): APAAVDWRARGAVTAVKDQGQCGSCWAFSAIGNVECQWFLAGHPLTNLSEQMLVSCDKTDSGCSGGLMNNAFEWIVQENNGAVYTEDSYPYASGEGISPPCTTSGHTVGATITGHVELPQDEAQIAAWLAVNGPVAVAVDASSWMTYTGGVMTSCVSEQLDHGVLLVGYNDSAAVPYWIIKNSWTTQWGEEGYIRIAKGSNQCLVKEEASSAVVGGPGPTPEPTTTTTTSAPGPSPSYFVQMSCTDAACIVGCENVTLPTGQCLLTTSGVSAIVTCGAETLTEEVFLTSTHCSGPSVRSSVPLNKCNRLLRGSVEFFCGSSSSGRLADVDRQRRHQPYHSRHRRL
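Purified cruzain at 1.5 nM, pre-incubated 15 min with compound at room temperature in 100 mM sodium acetate pH 5.5, 5 mM DTT, 0.00005% Triton X-100. Reaction started with 2 uM Z-FR-AMC; AMC fluorescence increase over 60 s gives rate.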
Cruzain inh Det = blocks cruzain activity in presence of Triton detergent; Potency, µM, without a hit: max response, negative = inhibition, usual class: inhibitors; AID 1478; purified cruzain, Z-FR-AMC fluorescence, 0.01% Triton; P25779; hit rate 0.43% among 200,000; active means well fitted curve in the direction sought with a large enough effect; inconclusive means small, poorly fitted or top-dose-only effect, or another doubt; inactive means no such curve, though single readings can be large; an effect the other way counts as inactive or inconclusive;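 further: plate controls were neutral wells for no effect and buffer without enzyme for full effect; nearly all actives have a fitted effect of over 40% in size; top concentration of the series not given in the record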
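Z-FR-AMC hydrolysis (2 uM substrate) by cruzain (1.5 nM) monitored kinetically at ex 360/em 450 nm after 15 min room-temperature compound exposure; 0.01% Triton X-100, pH 5.5, 5 mM DTT.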
NS1 function inh = blocks influenza NS1 protein function | Potency, µM (doses to about 46.1 µM), for the others: at the highest dose activity, positive = more growth | AID 2326 | S. cerevisiae slowed by influenza A NS1, growth recovery by OD600 | hit rate 0.4% among 270,000; further: actives are rising curves; nearly all actives have a fitted effect of over 50% in size
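A cell-based growth assay was used: compounds that relieve NS1-induced slow growth of budding yeast raise OD600. Assay medium was yeast nitrogen base with ammonium sulphate and -URA supplement, pH 6.0, with 2% galactose.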
LASV entry inh = Lassa virus entry inhibition. Potency, µM (doses to about 37.9 µM), without a hit: top-dose activity change, negative = inhibition, most hits filed as inhibitors. Lassa virus pseudotype entry inhibition, cell reporter; control for the full effect not named in the record. hit rate 1.2% among 300,000; active means well fitted inhibition curve with a large enough effect; inconclusive means small, poorly fitted or top-dose-only effect, or effect the other way; inactive means flat fitted curve, though single readings scatter; tested in HEK293 cells; further: on the % scale 0 is the no-effect control and ±100 the full control effect; nearly all actives have a fitted effect of over 50% in size; luciferase read-out
MARV entry inh = inhibitors of Marburg virus binding or cell entry; Marburg virus pseudotyped entry inhibition, cell reporter; control for the full effect not named in the record; about a third of the inactives were read at about 46 µM; Potency, µM (doses to about 37.8 µM), without a hit: at the highest dose activity change, negative = inhibition, hits mostly inhibitors; hit rate 1.8% among 300,000; active = well fitted inhibition curve with a large enough effect; inconclusive = small, poorly fitted or top-dose-only effect, or effect the other way; inactive = flat fitted curve, though single readings scatter; tested in HEK293 cells; about a fifth of its hits are not listed in these tables; further: on the % scale 0 is the no-effect control and ±100 the full control effect; luciferase read-out
* = called active by the depositor; ? = inconclusive; / = no result given; & = joins results of further samples; [ ] = remark or other dose. Unless noted, the call rests on the fitted dose curve; in most records, active means well fitted rising curve with a large enough effect; inconclusive means small, poorly fitted or top-dose-only effect; inactive means no such curve, though single readings can be large or run the other way. Potency means the concentration at half of the fitted maximal effect.

The line under a structure holds: SARS PLP yeast	StopGo reporter	RE007 growth inh	Cruzain noTriton	Cruzain inh Det	NS1 function inh	LASV entry inh	MARV entry inh
1. Cc1ccc(S(=O)(=O)N(C)C)cc1NC(=O)COC(=O)C1CCN(S(=O)(=O)c2cccs2)CC1
    -18%	11%	26%	/	/	/	-5%	5%[46.1 µM]
2. Cc1cccc(Nc2nnc(SCC(=O)c3ccc(O)cc3O)s2)c1
    3%	26%	1%	/	/	-7%	-11%	12%[46.1 µM]
3. O=C(CCSc1ccccc1)NCCSCc1ccccc1
    -28%	-5%	-6%	-11%	-4.4%	-12%	-10%	10%
4. Cc1ccc(NC(=O)CN(C)C(=O)c2ccc(S(=O)(=O)N(C)c3ccccc3)cc2)cc1
    0%	-19%	8%	/	/	/	?	?
5. Cc1ccc(C(=O)OCN2C(=O)c3ccccc3C2=O)o1
    /	-5%	22%	/	/	/	22%	1%[46.1 µM]
6. CCCCNS(=O)(=O)c1ccc(NC(=O)C2CCCO2)cc1 (centres undefined)
    1%	-4%	-3%	7%	-1.4%	-1%	-7%	-4%
7. CCCC(=O)Nc1nc2ccc(OC)cc2s1
    -21%	47%[activator]	-21%	-17%	-1.2%	-5%	/	/
8. CCc1sc(C(=O)N2CCN(c3ccc(F)cc3)CC2)cc1C
    -16%	0%	7%	/	/	-16%	18%	-14%[46.1 µM]
9. O=C(CCCCCN1C(=O)CCC1=O)Nc1ccc2c(c1)OCO2
    -4%	23%	6%	4%	-0.5%	1%	2%	?
10. Cc1ccc(NNS(=O)(=O)c2ccc(C)cc2)cc1
    -24%	-6%	32µM*	-2%	-3.1%	-4%	?	?
11. O=C(OCc1cc2ccccc2[nH]c1=O)c1ccccc1
    -5%	0%	-2%	17%	0.8%	-12%	-2%	14%
12. O=c1[nH]c(SCCN2CCOCC2)nc(O)c1-c1ccccc1
    1%	-7%	28%	/	/	1%	7%	13%
13. CCOC(=O)C1(Cc2ccccc2)CCN(Cc2cccn2-c2nccs2)CC1
    0%	-23%	-9%	/	/	-3%	-4%	?
14. COCCCn1c(=N)c(S(=O)(=O)c2ccccc2)cc2c(=O)n3cc(C)ccc3nc21
    /	16%	/	-7%	-1.2%	/	10%[46.1 µM]	0%[46.1 µM]
15. Cc1ccc(N=C2NC(=O)/C(=C/c3cn(C)c4ccccc34)S2)cc1C
    17%	0%	3%	13µM*	-4.6%	?	0.1µM*	?
16. COc1ccccc1N(CC(=O)Nc1c(C)cccc1C)S(C)(=O)=O
    2%	/	0%	5%	1.6%	-8%	4%	-1%
17. Cc1sc2ncnc(NC3CCN(Cc4ccccc4)CC3)c2c1C
    -1%	?	-19%	/	/	1%	?	?
18. CNC(=S)N/N=C/c1ccc2c(c1)OCCO2
    2%	47%[activator]	5%	6%	-4.9%	?	-3%	1%
19. COc1ccc(/C=C/C(=O)Nc2ccc(OC)cc2[N+](=O)[O-])cc1
    18%	-6%	-20%	-7%	-1.6%	6%	0%	16%
20. Cc1cc(C)c(C#N)c(OCC(=O)Nc2ccccc2)n1
    2%	-7%	-1%	/	/	3%	21%	11%
21. CN(C)CCn1c2ccccc2c2nc3ccc([N+](=O)[O-])cc3cc21
    0%	6%	-15%	/	/	3%	?	?
22. Cc1ccc(CN2CCC(CNc3ncnc4onc(-c5ccc(Cl)cc5)c34)CC2)cc1
    /	?	/	-10%	0.3%	/	?	/
23. CC(=O)C1=C(O)C(=O)N(Cc2ccccc2)C1c1ccc(F)cc1 (centres undefined)
    0%	-11%	15%	/	/	-1%	/	/
24. O=C(O)c1cc(Br)ccc1NN=C1CCCCC1
    10%	-5%	-5%	-16%	-4.4%	-3%	5%	3%
25. COc1ccccc1NC(=O)C1=C(C)Nc2nc(SCc3ccccc3)nn2C1c1ccncc1 (centres undefined)
    /	-26%	/	-8%	-0.9%	/	-27%[46.1 µM]	-19%[46.1 µM]
26. CCCc1cc(=O)[nH]c(SCC(=O)Nc2nonc2C)n1
    -2%	-2%	18%	/	/	-5%	19%[46.1 µM]	?
27. CC1(C)C2CC=C(CN3CCOCC3)C1C2 (centres undefined)
    ?	6%	3%	7%	2.4%	1%	-15%[14.3 µM]	6%
28. CN1CCN(C(=O)c2ccc(NS(=O)(=O)c3cccc([N+](=O)[O-])c3)cc2)CC1
    0%	-21%	-17%	/	/	/	25%	1%[46.1 µM]
29. Cc1cc(S(=O)(=O)N2CCOCC2)ccc1OCC(=O)N1CCC(C)CC1
    3%	-3%	-2%	/	/	-5%	3%	-7%[46.1 µM]
30. CCN(CC(O)CON=C1c2ccccc2-c2ccccc21)S(=O)(=O)c1ccc(C)cc1 (centres undefined)
    -23%	?	-14%	-10%	-2.2%	-32%	?	?

Quoted from the listing.
`Cc1ccc(NNS(=O)(=O)c2ccc(C)cc2)cc1` in Cruzain inh Det is entered as -3.1%
`Cc1ccc(NC(=O)CN(C)C(=O)c2ccc(S(=O)(=O)N(C)c3ccccc3)cc2)cc1` in RE007 growth inh is entered as 8%
`CC(=O)C1=C(O)C(=O)N(Cc2ccccc2)C1c1ccc(F)cc1` (centres undefined) in RE007 growth inh is entered as 15%
`CCCCNS(=O)(=O)c1ccc(NC(=O)C2CCCO2)cc1` (centres undefined) in StopGo reporter is entered as -4%

Returning to the listing; the 2 compounds before the break are reprinted first.
The line under a structure holds: SARS PLP yeast	StopGo reporter	RE007 growth inh	Cruzain noTriton	Cruzain inh Det	NS1 function inh	LASV entry inh	MARV entry inh
29. Cc1cc(S(=O)(=O)N2CCOCC2)ccc1OCC(=O)N1CCC(C)CC1
    3%	-3%	-2%	/	/	-5%	3%	-7%[46.1 µM]
30. CCN(CC(O)CON=C1c2ccccc2-c2ccccc21)S(=O)(=O)c1ccc(C)cc1 (centres undefined)
    -23%	?	-14%	-10%	-2.2%	-32%	?	?
31. O=C(Nc1cc(C(F)(F)F)ccc1-n1cnc2ccccc21)c1ccccc1
    -9%	4%	8%	8%	-16%	-1%	-5%	-13%
32. COc1cccc(-c2[nH]nc3c2C(c2ccc(C)o2)C(C#N)=C(N)O3)c1 (centres undefined)
    4%	-10%	-9%	7%	-12%	12%	-7%	1%
33. CCN(CC(=O)NCc1cccs1)C(=O)/C=C/c1ccc(OC)c(OC)c1
    -3%	-7%	-13%	/	/	/	-11%	-15%
34. O=C(Cn1nnc2ccccc21)OCC(=O)c1ccc(Cl)c(Cl)c1
    8%	-5%	-7%	1%	-8.9%	-8%	-1%	17%
35. CC1(C)Cc2cccc(OCC(=O)N3CCN(S(=O)(=O)c4ccc(F)cc4)CC3)c2O1
    3%	-7%	-2%	17%	-2.4%	-6%	-17%	-17%[46.1 µM]
36. COc1ccc([N+](=O)[O-])cc1NC(=O)CCc1ccccc1
    -5%	-10%	-2%	-3%	-4.3%	-5%	14%	-2%
37. CCN1CCN(C(=O)c2oc(=O)c3ccccc3c2-c2ccc(C)cc2)CC1
    -13%	9%	10%	-11%	-2.0%	-10%	-22%	16%
38. O=C(O)c1cc(N/N=C2/CC(c3ccccc3)Oc3ccccc32)ccc1Cl (centres undefined)
    19%	16%	-14%	19%	-9.9%	2%	2%	?
39. O=C(CSc1nnc(-c2cccnc2)n1Cc1ccco1)NCc1ccc2c(c1)OCO2
    0%	4%	-2%	-10%	2.2%	-3%	4%	19%&19%
40. CCn1ncc(Br)c1C(=O)Nc1ccc2c(c1)OCCO2
    -3%	17%	-24%	/	/	/	-4%	?
41. COc1ccccc1OCC(=O)NCC1CCCN(Cc2cnn(C(C)C)c2)C1 (centres undefined)
    -5%	-10%	6%	/	/	16%	-5%	-1%
42. COc1ccc(NC2CCCN(C(=O)CCN3CCOCC3)C2)cc1 (centres undefined)
    4%	-2%	-6%	/	/	11%	/	/
43. Cc1ccc2nc(/C(C#N)=C\c3ccc(Oc4ccc(C(F)(F)F)cc4[N+](=O)[O-])cc3)[nH]c2c1
    20%	-13%	-2%	7.9µM*	-1.8%	16%	-2%	?
44. CC(C)NC(=O)c1ccccc1NC(=O)Cc1ccc([N+](=O)[O-])cc1
    -1%	-19%	1%	/	/	7%	14%	-16%
45. CCC(NC(=O)Cc1c(C)c2c(cc(C)c3c(C)c(C)oc32)oc1=O)C(=O)O (centres undefined)
    0%	2%	3%	/	/	1%	/	/
46. CCc1nc(N2CCCC2C(=O)O)c2oc3ccccc3c2n1 (centres undefined)
    7%	-13%	11%	-5%	-3.4%	1%	9%	8%
47. C/C(=N\N=C(/N)SC1CC(=O)N(c2cccc(Cl)c2)C1=O)c1cccs1 (centres undefined)
    5%	/	-21%	-10%	-3.0%	12%	-6%	-17%
48. Clc1cccc(OCCn2ccnc2)c1
    3%	8%	7%	/	/	10%	4%	-7%
49. CC1CCc2cc(F)ccc2N1C(=O)CSc1nnc(-c2cccs2)n1C (centres undefined)
    1%	0%	6%	5%	1.1%	-10%	1%	-19%
50. CC(=O)Nc1ccc(OC(=O)c2cc3ccccc3oc2=O)cc1
    2%	15%	9%	-5%	-0.6%	6%	5%	-1%
51. CCCOC(=O)C1C2c3ccccc3C(c3ccccc32)C1C(=O)O (centres undefined)
    1%	-14%	-4%	/	/	3%	11%	1%[46.1 µM]
52. COc1ccccc1N1CCN(C2CC(=O)N(C)C2=O)CC1 (centres undefined)
    -2%	20%	0%	/	/	/	-11%[46.1 µM]	-26%[46.1 µM]
53. CCc1ccc(NC(=O)CN2CCCN(Cc3cccc(Cl)c3)S2(=O)=O)cc1
    /	-12%	/	10%	-6.2%	/	?	/
54. CCc1cccc(NC(=S)N(CCN(C)C)C(C)c2ccncc2)c1 (centres undefined)
    -3%	0%	9%	/	/	-9%	/	/
55. CC1(C)CC(=O)c2c(nc(SCC(=O)Nc3nsc(-c4ccccc4)n3)c(C#N)c2-c2ccccc2)C1
    3%	-22%	-8%	?	-0.3%	?	?	?
56. O=C(Oc1ccccc1)N(c1ccccc1)c1ccccc1
    0%	1%	124%	/	/	-3%	11%[46.1 µM]	?
57. O=S1(=O)CCOCCCN1Cc1cccc(C(F)(F)F)c1
    -2%	-12%	1%	/	/	1%	/	/
58. CSc1nc(Oc2ccc(F)cc2F)cc(C(F)(F)F)n1
    0%	0%	-2%	7%	-3.2%	5%	5%	4%[46.1 µM]

Screening data (PubChem)
